# RE007 growth inh – qHTS Assay for Inhibitors of the HIV-1 protein Vpr. S. pombe RE007 Vpr strain, BacTiter-Glo ATP luminescence, 24 h; control for the full effect not named in the record. Potency, µM (highest dose often 92.2 µM), for the others: top-dose activity change, negative = less growth. hit rate 0.21% among 360,000; active = well fitted falling curve with a large enough effect; inconclusive = small, poorly fitted or top-dose-only effect; inactive = no such curve, though single readings can be large or run the other way;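 further: on the % scale 0 is the no-effect control and ±100 the full control effect; nearly all actives have a fitted effect of over 50% in size; the assay follows cell death caused by Vpr and the record does not say whether a fall means rescue or toxicity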
#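 Fission yeast RE007 carrying one integrated HIV-1 vpr copy, seeded at OD 0.01 in PMG+AL medium with 23 nL pinned compound. Grown 24 h at 30 degrees; viability read by BacTiter-Glo luminescence after 5 min.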
# MARV entry inh – qHTS for inhibitors of binding or entry into cells for Marburg Virus; hit rate 1.8% among 300,000; Marburg virus pseudotyped entry inhibition, cell reporter; control for the full effect not named in the record; about a third of the inactives were read at about 46 µM; Potency, µM (top dose mostly 37.8 µM), without a hit: at the top dose activity change, negative = inhibition, actives largely listed as inhibitors; AID 540276, 2011; active = well fitted inhibition curve with a large enough effect; inconclusive = small, poorly fitted or top-dose-only effect, or effect the other way; inactive = flat fitted curve, though single readings scatter; tested in HEK293 cells; about a fifth of its hits are not listed in these tables; further: on the % scale 0 is the no-effect control and ±100 the full control effect; luciferase read-out
# 2A StopGo – High Throughput Screening for Foot and Mouth Disease Virus Antivirals; human cells with a luciferase reporter of 2A StopGo recoding; control for the full effect not named in the record; hit rate 1.2% among 410,000; Potency, µM (top dose mostly 57.9 µM), for inactives: at the top dose signal change, negative = less light; active = well fitted falling curve with a large enough effect; inconclusive = small, poorly fitted or top-dose-only effect; inactive = no such curve, though single readings can be large or run the other way; tested in HEK293T cells; further: on the % scale 0 is the no-effect control and ±100 the full control effect; nearly all actives have a fitted effect of over 45% in size; luciferase light after 4 h
# Cruzain noTriton – qHTS Assay for Promiscuous and Specific Inhibitors of Cruzain (without detergent); Cruzipain (Trypanosoma cruzi), P25779; purified cruzain, Z-FR-AMC fluorescence, no detergent; Potency, µM, for the others: max response, negative = inhibition, most hits filed as inhibitors; hit rate 2.3% among 200,000; AID 1476, 2009; active means well fitted curve in the direction sought with a large enough effect; inconclusive means small, poorly fitted or top-dose-only effect, or another doubt; inactive means no such curve, though single readings can be large; an effect the other way counts as inactive or inconclusive;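 further: plate controls were enzyme without inhibitor for no effect and buffer without enzyme for full effect; nearly all actives have a fitted effect of over 40% in size; top concentration of the series not given in the record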
# Target sequence (P25779 123-467 limits assumed): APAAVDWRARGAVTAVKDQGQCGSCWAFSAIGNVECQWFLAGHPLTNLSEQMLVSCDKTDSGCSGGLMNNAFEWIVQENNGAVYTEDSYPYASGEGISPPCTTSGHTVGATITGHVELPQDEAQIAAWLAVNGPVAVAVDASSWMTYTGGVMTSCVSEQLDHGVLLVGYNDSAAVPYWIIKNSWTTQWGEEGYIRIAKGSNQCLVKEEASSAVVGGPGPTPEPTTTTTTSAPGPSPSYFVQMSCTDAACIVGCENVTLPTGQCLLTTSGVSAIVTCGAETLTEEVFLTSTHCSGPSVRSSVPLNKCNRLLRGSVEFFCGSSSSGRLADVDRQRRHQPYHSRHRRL
#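 Detergent-free condition (0.00005% Triton X-100) in acetate buffer pH 5.5 with DTT. 1.5 nM enzyme and compound were pre-mixed 15 min, then 2 uM Z-FR-AMC substrate added; reaction progress from fluorescence change between first and third reads (60 s).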
# NS1 function inh – qHTS Assay for Inhibitors of Influenza NS1 Protein Function; S. cerevisiae slowed by influenza A NS1, growth recovery by OD600; hit rate 0.4% among 270,000; AID 2326, 2010; Potency, µM (highest dose often 46.1 µM), for the others: top-dose activity, positive = more growth; further: actives are rising curves; nearly all actives have a fitted effect of over 50% in size
#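 OD600 was taken as the measure of yeast growth restored by compound in an NS1-expressing S. cerevisiae strain. Cells had been washed out of glucose medium and diluted 1:100 into galactose -URA medium, pH 6.0.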
# Cruzain inh Det – qHTS Assay for Promiscuous and Specific Inhibitors of Cruzain (with detergent). Potency, µM, inactives show max response, negative = inhibition, most hits filed as inhibitors. purified cruzain, Z-FR-AMC fluorescence, 0.01% Triton. hit rate 0.43% among 200,000; active means well fitted curve in the direction sought with a large enough effect; inconclusive means small, poorly fitted or top-dose-only effect, or another doubt; inactive means no such curve, though single readings can be large; an effect the other way counts as inactive or inconclusive;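 further: plate controls were neutral wells for no effect and buffer without enzyme for full effect; nearly all actives have a fitted effect of over 40% in size; top concentration of the series not given in the record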
#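 Steps: dispense cruzain (1.5 nM final) in acetate buffer pH 5.5 with DTT and 0.01% Triton X-100; pin-transfer compounds; incubate 15 min RT; add Z-FR-AMC (2 uM final); read fluorescence every 30 s, using the 60 s intensity change.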
# LASV entry inh – qHTS for Inhibitors of binding or entry into cells for Lassa Virus | Lassa virus pseudotype entry inhibition, cell reporter; control for the full effect not named in the record | Potency, µM (highest dose often 37.9 µM), for inactives: at the top dose activity change, negative = inhibition, actives largely listed as inhibitors | hit rate 1.2% among 300,000; active means well fitted inhibition curve with a large enough effect; inconclusive means small, poorly fitted or top-dose-only effect, or effect the other way; inactive means flat fitted curve, though single readings scatter; tested in HEK293 cells; further: on the % scale 0 is the no-effect control and ±100 the full control effect; nearly all actives have a fitted effect of over 50% in size; luciferase read-out
# SARS PLpro yeast – qHTS of Yeast-based Assay for SARS-CoV PLP | S. cerevisiae expressing SARS-CoV PLpro, growth rescue; control for the full effect not named in the record | Potency, µM (highest dose often 32.9 µM), without a hit: at the highest dose activity, positive = growth rescue | hit rate 0.19% among 330,000; further: 0% is about no effect; nearly all actives have a fitted effect of over 55% in size; growth read by luminescence after 48 h
# Active calls of the source: *; u = inconclusive; x = no result given; & = joins results of further samples; [ ] = dose if it differs, or a comment. Unless noted, the call rests on the fitted dose curve; in most records, active means well fitted rising curve with a large enough effect; inconclusive means small, poorly fitted or top-dose-only effect; inactive means no such curve, though single readings can be large or run the other way. Potency means the concentration at half of the fitted maximal effect. An unsorted share of the library. About 4.7% of those tested had a hit in this group.
# Every second line gives: RE007 growth inh	MARV entry inh	2A StopGo	Cruzain noTriton	NS1 function inh	Cruzain inh Det	LASV entry inh	SARS PLpro yeast
> COc1ccc(C(=O)N(Cc2ccco2)Cc2cc3cc(C)ccc3[nH]c2=O)cc1OC
→ 16%	-33%	-30%	x	-26%	x	u	x
> Cc1ccc(C(=O)N2CCc3ccccc32)cc1NC(=O)c1ccco1
→ -1%	0%	22%	x	x	x	u	-3%
> CCn1cc(C(=O)N2CCN(c3ccccn3)CC2)c2cc(OC)c(OC)cc2c1=O
→ -10%	-15%	-17%	4%	-16%	1.6%	-4%	-5%
> O=C(O)c1ccc(CNCc2cccc(OCc3ccc(F)cc3)c2)cc1
→ 16%	11%[46.1 µM]	-7%	x	8%	x	0%[46.1 µM]	0%
> CCc1ccc(OCC(=O)NC(NC(=S)Nc2ccc(Cl)cc2)C(Cl)(Cl)Cl)cc1 (stereo unspecified)
→ 4%	u	-5%	u	16%	-2.8%	u	-5%
> COC(=O)c1c(NC(=O)c2ccc(C)cc2)csc1C
→ -23%	-1%[46.1 µM]	26%	x	-3%	x	-17%	-1%
> CCOc1ccc(C(c2c(C)n(C)n(-c3ccccc3)c2=O)c2c(C)n(C)n(-c3ccccc3)c2=O)c(O)c1
→ 2%	8%	-2%	x	x	x	-33%	x
> O=C(Oc1cncc(Cl)c1)c1ccco1
→ u	16%	-17%	-2%	-5%	-0.7%	6%	-29%
> COc1cccc(NC(=O)CN(C)C(=O)c2ccc3ccccc3c2)c1
→ -4%	-10%	18%	-3%	-4%	-3.8%	3%	-1%
> CCC(C)Sc1nnc(Cc2cc(=O)[nH]c(=O)[nH]2)n1-c1ccc(OC)cc1 (stereo unspecified)
→ 6%	x	-24%	3%	4%	-0.6%	x	-1%
> Cc1ccc(/C=C(\C#N)c2nc3ccccc3c(=O)[nH]2)cc1
→ x	x	32%[activator]	-8%	x	-0.5%	-20%[46.1 µM]	x
> O=C(COC(=O)CCc1nc2ccccc2s1)NC(=O)NCc1ccco1
→ 4%	u	-5%	x	x	x	17%	-1%
> O=S(=O)(Nc1ccc(N2CCOCC2)cc1)c1ccc(F)cc1
→ 18%	-28%[46.1 µM]	-4%	x	0%	x	-13%	0%
> CC(C)(C)S(=O)(=O)c1ccccc1-c1noc(-c2ccccc2)c1C(N)=O
→ 11%	4%[46.1 µM]	-4%	x	x	x	u	x
> CCOC(=O)c1ccc(NC(=O)CSc2cn(CC(=O)N3CCCC3)c3ccccc23)cc1
→ x	x	-12%	22%	x	-5.7%	1%[46.1 µM]	x
> CC(C)Sc1sc(C(=O)O)c(-c2ccc(Cl)cc2)c1C#N
→ 10%	3%	-2%	x	0%	x	-1%	1%
> O=C(/C=C/c1ccccc1[N+](=O)[O-])OCC(=O)c1ccccc1
→ -19%	-1%	55%[activator]	x	-5%	x	u	0%
> Cc1ccccc1Cn1ccc(NC(=O)c2onc(C)c2Cl)n1
→ -1%	x	44%[activator]	-10%	-41%	-6.7%	x	-19%
> CC(C)(C)c1ccc(C(=O)Cn2cnnc2C#N)cc1
→ 8%	4%[46.1 µM]	16%	x	14%	x	10%	-3%
> Cc1cc(C)n2nc(SCC(=O)Nc3ccc(O)cc3)nc2n1
→ -25%	3%&24%[46.1 µM]	-3%&-24%	0%	-1%	-1.0%	2%[46.1 µM]	-1%
> CCC(=O)N1CCc2cc(Br)cc(S(=O)(=O)NCCCN(C)Cc3ccccc3)c21
→ 4%	u	2%	x	6%	x	18%	-2%
> Cc1ccc(S(=O)(=O)CCc2nc3ccccc3s2)cc1C
→ -6%	2%	27%	3%	-17%	-1.9%	-24%	-4%
> Nc1nn(S(=O)(=O)c2ccccc2)cc1-c1cccc([N+](=O)[O-])c1
→ 14%	-23%[46.1 µM]	-15%	x	x	x	-11%	-4%
> Cc1nc(N)c(C#N)c(-c2cccnc2)c1-c1ccccc1
→ -1%	x	-19%	x	1%	x	x	3%
> Cc1c(C)n(C)c2ccc([N+](=O)[O-])cc12
→ u	-1%	-5%	-1%	-32%	-0.7%	-3%	-4%
> CCOC(=O)Cc1csc(NC(=O)CSc2nnnn2-c2ccc(F)cc2)n1
→ 6%	0%	x	8%	-4%	0.5%	u	12%
> COc1ccc(NC(=O)CN2C3CCC2CC(O)(c2cccnc2)C3)cc1OC (stereo unspecified)
→ 13%	-2%	-6%	-8%	-3%	0.7%	14%	-9%
> O=[N+]([O-])c1ccc(C=NNc2ccc(S(=O)(=O)O)cc2)cc1
→ -22%	19%[46.1 µM]	5%	x	x	x	0%[46.1 µM]	x
> Cc1ccccc1OCC(=O)Nc1cccc(N(C)S(C)(=O)=O)c1
→ 5%	0%	x	-1%	-10%	-2.6%	24%	u
> COc1ccc(N(Cc2cc3cc(OC)ccc3[nH]c2=O)C(=O)c2cccc(Cl)c2)cc1
→ x	-1%[46.1 µM]	0%	-24%	x	-2.7%	-1%[46.1 µM]	x
> CCCN(CCC)CC(C)(C)NS(=O)(=O)c1ccc(Cl)cc1
→ -3%	-21%	-12%	x	7%	x	0%	0%
> CC(C)CC(=O)Nc1ccc(-c2nc3ccccc3c(=O)o2)cc1
→ -5%	u	49%[activator]	-28%	6%	-25%	u	21%
> CCN(CC)S(=O)(=O)c1ccc(N2CCOCC2)c(NC(=O)c2cccc(C#N)c2)c1
→ 2%	u	2%	x	-5%	x	6%[46.1 µM]	2%
> Cc1cccn2c(=O)c3cc(C(=O)NCc4cccnc4)c(=N)n(CC4CCCO4)c3nc12 (stereo unspecified)
→ 0%	-20%[46.1 µM]	0%	x	10%	x	x	4%
> CC(=O)c1n[nH]nc1Nc1nc(C)cc(C)n1
→ -1%	-9%	60%[activator]	0%	-11%	-5.6%	0%	-20%
> O=C(NC1CC1)C1=C[C@@H](C2CC2)C[C@@H](OCc2ccc(CO)cc2)O1
→ -10%	x	-10%	x	2%	x	x	1%
> CCc1cc[n+](/C(C(=S)Nc2cccc(C)c2)=C(/[O-])c2ccc(C)c([N+](=O)[O-])c2)cc1
→ -11%	-7%[46.1 µM]	-7%	-21%	3%	-9.3%	u	-5%
> CCOc1cccc(CN2CCCC(C(=O)Nc3cccc(-n4cccn4)c3)C2)c1 (stereo unspecified)
→ -22%	u	-21%	x	0%	x	-8%	-1%
> CCOC(=O)c1ccccc1NC(=O)CSc1nnnn1C
→ 16%	7%	-19%	0%	5%	-0.8%	-6%	5%
> COc1cccc(C(Nc2ccccn2)c2c(NC(=O)c3ccco3)sc(C)c2C)c1 (stereo unspecified)
→ -5%	u	0%	14%	-26%	-8.8%	u	0%
> COc1ccc(-c2cc(CCCC(=O)NCCc3ccccc3)no2)cc1
→ 4%	u	3%	x	-4%	x	-14%[46.1 µM]	-2%
> CCCCOC(=O)N1CCOCCOCCOCC1
→ -6%	7%[46.1 µM]	-9%	x	3%	x	17%[46.1 µM]	0%
> Cc1ccc(S(=O)(=O)NCC(=O)OCc2nnc(-c3ccccc3)o2)cc1C
→ 9%	u	19%	2%	-84%	-8.3%	28%	3%
> COc1cccc(-c2cc(C(=O)NCCCn3ccnc3)c3ccccc3n2)c1
→ 9%	19%	-19%	-2%	17%	-5.1%	-11%	-27%
> O=C(CCC1CCCCC1)Nc1cc(Cl)ccc1N1CCOCC1
→ -1%	u	-24%	x	x	x	u	-5%
> COc1ccc(OCCSc2ncccn2)cc1
→ -6%	u	14%	-1%	3%	2.3%	u	-5%
> CN(C)c1ccc(-n2c(CCC(=O)O)ccc2-c2ccccc2)cc1
→ x	20%[46.1 µM]	-2%	-8%	x	-10.0%	6%[46.1 µM]	x
> Cc1cc(NS(=O)(=O)c2ccc(N3C(=O)C4C5C=CC(C5)C4C3=O)cc2)nc(C)n1 (stereo unspecified)
→ 5%	13%	34%[activator]	8%	9%	3.2%	7%	u
> O=C(O)/C=C/C(=O)Nc1ccc(Cc2ccc(NC(=O)/C=C/C(=O)O)cc2)cc1
→ 16%	1%	-2%	x	3%	x	14%	-4%
> COc1ccc(N2CC(C(=O)Nc3nnc(SCC(=O)N4CCOCC4)s3)CC2=O)cc1 (stereo unspecified)
→ -5%	x	-4%	x	20%	x	x	1%
> Nc1nc(-c2ccc3ccccc3c2)c(C2(O)C(=O)Nc3c(Br)cc(F)cc32)s1 (stereo unspecified)
→ 12%	u	-14%	8%	-4%	4.6%	-22%	1%
> CCN(CC)CCNC(=O)c1sc2nc(C)cc(C)c2c1-n1cccc1
→ x	20%[46.1 µM]	0%	-1%	x	-5.4%	4%[46.1 µM]	x
> O=C(Nc1ccc(OC(F)(F)F)cc1)C(Cc1ccccc1)NS(=O)(=O)c1cccc2nsnc12 (stereo unspecified)
→ x	-30%[46.1 µM]	-2%	7%	x	-3.9%	-11%[46.1 µM]	x
> CC(=O)Nc1ccccc1OCC(O)CS(=O)(=O)c1ccc(C(F)(F)F)cn1 (stereo unspecified)
→ 5%	x	-19%	x	1%	x	x	1%
> Cc1ccc(S(=O)(=O)c2nc(S(=O)(=O)c3ccccc3)sc2N2CCN(C)CC2)cc1
→ -4%	x	9%	x	-9%	x	x	8%
> CN(Cc1ccon1)C(=O)C1CCC(=O)N(CCc2ccc(Cl)cc2)C1 (stereo unspecified)
→ -2%	x	7%	x	-7%	x	x	14%
> CN(C)C(=O)COc1ccc2ccc(=O)oc2c1
→ 0%	21%	18%	9%	-1%	-6.3%	16%	5%
> Nc1nc(=S)c2ncn(C3CCCCC3)c2[nH]1
→ -8%	1%[46.1 µM]	3%	x	x	x	18%[46.1 µM]	x
> C=CCN=C1NN=C(c2cc(C)n(CC=C)c2C)CS1
→ 0%	u	18µM*	25µM*	4%	-7.5%	u	1%
